Source: PubChem
Vaccinia Venus = vaccinia inhibition (Venus reporter); Vaccinia virus Venus reporter expression, fluorescence; Potency, µM (titrated, usually from 36.5 µM), without a hit: at the highest dose activity change, negative = inhibition, hits mostly inhibitors; actives 0.46% (n = 330,000); AID 720580; active means well fitted inhibition curve with a large enough effect; inconclusive means small, poorly fitted or top-dose-only effect; inactive means no such curve, though single readings can be large or run the other way; tested in A549 cells; also: nearly all actives have a fitted effect of over 30% in size; inactives centre near -10
Vaccinia mCherry = inhibitors of vaccinia virus infection (mCherry reporter signal); Vaccinia virus mCherry reporter infection, fluorescence; about a quarter of the inactives have no number; Potency, µM (series often up to 36.5 µM), without a hit: at the top dose activity change, negative = inhibition, most hits filed as inhibitors; actives 0.63% (n = 310,000); active = well fitted inhibition curve with a large enough effect; inconclusive = small, poorly fitted or top-dose-only effect; inactive = no such curve, though single readings can be large or run the other way; tested in A549 cells; also: nearly all actives have a fitted effect of over 35% in size; inactives centre near -10
The depositor's hits bear a star; i = inactive; ? = inconclusive; . = not tested or not shown; [ ] = remark or other dose. % is scaled to controls: 0 for no effect and ±100 for the full control effect; potency is read from the fitted curve at half-maximal effect.

SMILES | Vaccinia Venus | Vaccinia mCherry
COc1ccccc1NC(=O)Cn1cnc2ccc(S(=O)(=O)N3CCC(C)CC3)cc2c1=O | -2.1% | -13.9%
CCc1cc(=O)oc2c3c(cc(OCC(=O)NCCCOC)c12)OC(C)(C)CC3 | -16.4% | -3.2%
CC(=O)c1sc(N/N=C/c2cccc([N+](=O)[O-])c2)nc1C | -1.8% | ?
CCn1nc(C)c2c(-c3ccccc3)cc(=O)n(C(C)C(=O)NCc3cccc(OC)c3)c21 (stereo unspecified) | -15.5% | -11.2%
CN(C)c1ccc(CN(CC2CCCO2)C(=O)c2ccc(Br)cc2)cc1 (stereo unspecified) | -1.9% | -0.8%
Cc1[nH][nH]c(=O)c1C(c1ccc(-c2ccc(Cl)cc2)o1)c1c(C)[nH][nH]c1=O | -10.2% | -16.7%
CCN(Cc1ccccc1)S(=O)(=O)c1ccc(S(=O)(=O)N(Cc2ccccn2)Cc2ccco2)cc1 | -17.1% | i
COc1ccc(C(=O)NCC(=O)N2CCN(c3ccc(F)cc3)CC2)cc1 | 3.5% | -11.4%
CC(C)n1[nH]c2ccccc2c1=O | 6.8% | 10.2%
COc1ccc(-n2c(C)cc(C(=O)CN3C(=O)c4ccccc4C3=O)c2C)cc1 | -14.4% | -2.3%
CCN1C(=O)C(O)(CC(=O)c2cc(C)ccc2C)c2ccccc21 (stereo unspecified) | -1.1% | -10.6%
CCNC(=O)C1CCN(c2nc3ccccc3nc2C(F)(F)F)CC1 | -8.0% | -0.8%
CCN(CC)C(=O)C1=C(C)N(Cc2ccc(C(C)(C)C)cc2)C(=O)C(CC(=O)NCc2ccco2)C1 (stereo unspecified) | ? | ?
C(=N\Nc1nc2ccccc2[nH]1)/c1ccc2ncccc2c1 | 0.891µM* | 1.58µM*
CCC(Sc1nc(C)cc(=O)[nH]1)C(=O)Nc1ccc(Cl)cn1 (stereo unspecified) | -1.5% | 41.7%
COc1ccc(CCNC(=O)Cn2cc(S(=O)(=O)Cc3ccccc3F)c3ccccc32)cc1OC | -3.0% | -7.1%
O=S(=O)(c1ccc(Cl)c(C(F)(F)F)c1)N1CCN(c2ccccn2)CC1 | -18.9% | -7.3%
COc1ccc(CCN2CN(S(=O)(=O)c3ccc(C)cc3)c3nc4ccccc4nc32)cc1OC | -5.5% | i
O=C(CN1C(=O)C2C3C=CC(C3)C2C1=O)OCC(=O)c1ccc([N+](=O)[O-])cc1 (stereo unspecified) | -23.5% | -4.8%
CS(=O)(=O)N1N=C(c2cccs2)CC1c1ccccc1O (stereo unspecified) | -5.8% | -7.5%
C[C@@]12C(=O)N(c3cccc(F)c3)C(=O)N1[C@H](c1ccc(F)cc1)[C@@H]1C(=O)N(C3CCCCC3)C(=O)[C@@H]12 | -27.6% | -15.8%
COC(=O)c1c(-c2cccs2)csc1NC(=O)c1ccc(OC)c(OC)c1 | -6.8% | -14.3%
CCOC(=O)c1ccc(NC(=O)CSc2nccn2-c2cc(C)cc(C)c2)cc1 | 1.3% | -12.3%
COc1ccc(OC)c(CNC(=O)c2ccc(Sc3ccc(Cl)cc3)c(NC(C)=O)c2)c1 | -15.6% | i
COc1cc(C2c3cc4c(cc3OC(NCCc3ccccc3)C2C)OCO4)cc(OC)c1OC (stereo unspecified) | ? | ?
O=C(CN1CCOCCOCCN(CC(=O)Nc2ccccc2)CCOCC1)Nc1ccccc1 | 6.4% | -6.4%
O=C(Nc1ccc2c(c1)OCO2)c1ccc(CN2CCOCC2)cc1 | -5.1% | -9.9%
O=C(Nc1ccc2c(c1)OCO2)c1cc(-c2ccncc2)nc2ccccc12 | -26.4% | -18.8%
C=CCn1c2ccccc2c2nnc(SCCCn3c(=O)[nH]c4ccccc43)nc21 | 10µM* | .
COc1ccc(OC)c(N(CC(=O)N2CCOCC2)S(C)(=O)=O)c1 | -15.1% | -14.3%
CC(C)(C)n1ncc2c(=O)n(CC(=O)NCc3ccccc3)cnc21 | -27.1% | -4.1%
CCOC(=O)C(CC(=O)O)=C(c1ccccc1)c1ccccc1 | -13.8% | -14.4%
O=C(c1ccc(S(=O)(=O)NCc2ccco2)cc1)N1CCN(Cc2ccc3c(c2)OCO3)CC1 | -20.0% | ?
CCOC(=O)c1c(NC(=O)COC(=O)C2CC2C)sc(C)c1C (stereo unspecified) | ? | ?
COc1ccc(CNC(=O)c2cc(=O)[nH]c3ccc(S(=O)(=O)N4CCCC4)cc23)c(OC)c1 | -5.2% | -5.2%
O=C(Nc1cccc2ccccc12)N1CC=CCC1 | -7.7% | -23.9%
Cc1cc(Cl)ccc1OC(C)C(=O)NCCc1ccc2c(c1)OCCO2 (stereo unspecified) | -2.0% | -17.6%
Clc1ccc(Cn2c(/C=C/c3ccco3)nc3ccccc32)cc1 | -3.9% | i
O=C(CSc1nnc2ccccn12)NC(=O)NC1CCCCC1 | -16.5% | .
O=C(O)/C=C/C(=O)Nc1ccc(NC(=O)c2ccccc2)c(Cl)c1 | -20.3% | -9.4%
CC(C)(C)OC(=O)C[C@H]1C/C=C\C[C@@H](CC(=O)NCCO)C(=O)N[C@H](C(C)(C)C)COC1=O | -3.4% | i
CC(C)c1nc(CNC(=O)CC2C(=O)NCCN2Cc2ccc(F)cc2Cl)cs1 (stereo unspecified) | -9.7% | -17.6%
CC12CN(C(=O)c3ccco3)CC(c3ccccc3)(CN(C(=O)c3ccco3)C1)C2=O | -8.6% | .
CN1/C(=C\C=C2/C(=O)Oc3ccccc3C2=O)C(C)(C)c2ccccc21 | i | 202.2%[activator]
Cc1cccc(NC(=O)C2CCC(CNS(=O)(=O)c3csc(C(N)=O)c3)CC2)c1C (stereo unspecified) | 10.9% | 13.0%
OC(c1ccc(F)c(F)c1)c1ncc(-c2ccc(F)cc2)[nH]1 (stereo unspecified) | -1.0% | 26.8%
CCOC(=O)C1=CCN(S(=O)(=O)c2cccc(Cl)c2)C1c1ccc(Br)cc1 (stereo unspecified) | -2.3% | i
O=[N+]([O-])c1ccc(OP(=O)(O)Oc2ccc([N+](=O)[O-])cc2)cc1 | -13.8% | -15.7%
Cc1noc(COc2ccccc2OCC(N)=O)c1Cl | 0.1% | .
COc1cc(NC(=O)C2CC3CCC2C3)c(OC)cc1Cl (stereo unspecified) | -10.7%[7.34 µM] | -17.4%[7.34 µM]
CCOC(=O)C1CCCN(C(=O)c2ccc3c(c2)N(Cc2ccc(Cl)cc2)C(=O)c2ccccc2S3=O)C1 (stereo unspecified) | -17.6% | -20.6%
O=C(COc1cccc2c1CCNC2=O)Nc1cccc(F)c1 | -17.8% | -15.7%
C=CCN1C=C2C(=O)C(C)(OC(=O)C3CCCC3)C(=O)C(c3ccccc3)=C2C=C1CCCC(=O)OC (stereo unspecified) | 1.8% | -1.9%
CC(C)C[C@H]1CN([C@@H](CC(C)C)CN2CCCC2CN2C(=S)NC[C@@H]2Cc2ccc(O)cc2)C(=S)N1CC1CCCCCC1 (stereo partly specified) | ? | ?
CNCCc1ccc(OC)c(OC)c1 | -8.6% | i
O=C(CSc1nc(=O)n(CCN2CCOCC2)c2c1CCCC2)Nc1cccc([N+](=O)[O-])c1 | -4.3% | -1.5%
Nc1nonc1-n1nnc(C(=O)N/N=C/c2ccccc2Cl)c1-c1ccc2c(c1)OCO2 | -17.2% | i
CC(C)(C)OC(=O)N1CCC(c2c(C(=O)NCc3ccco3)cnn2-c2ccc(F)cc2F)CC1 | -2.9% | -9.7%
COc1ccc(Cl)cc1NC(=S)NCCCN1CCCC1=O | 2.8% | i
CN1/C(=C\C(=S)Nc2ccccc2)C(C)(C)c2ccccc21 | 71.8%[activator] | -6.7%

The results go on:
SMILES | Vaccinia Venus | Vaccinia mCherry
Cc1ccccc1-n1c(=O)cc(N2CCCCCC2)[nH]c1=O | -10.2% | -8.9%
CC(O)CSc1nc2c(c(=O)[nH]c(=O)n2C)n1Cc1ccccc1Cl (stereo unspecified) | -10.0% | i
Cc1cc(C)n(CC(=O)NN)n1 | -1.4% | i
Cc1ccc(NC(=O)Nc2nnc(SCC(=O)Nc3ccc(F)cc3F)s2)cc1 | -4.9%[7.34 µM] | -2.7%[7.34 µM]
COC(=O)c1cn(C)c2ccc(S(=O)(=O)N3CC(C)CC(C)C3)cc2c1=O (stereo unspecified) | -12.2% | -16.2%
CCCCNCc1cc(OCC)c(OCC)cc1Br | 3.1% | -4.4%
COCCNC(=O)C1CC(=O)N(c2ccc(OC)cc2)C1c1ccc(OC)cc1 (stereo unspecified) | -9.7% | i
Cc1ccc(S(=O)(=O)N2[C@@H](c3ccccc3)C(C(=O)O)=CC[C@H]2c2ccc(C(C)C)cc2)cc1 | -12.6% | -9.6%
CC(C)CN(C(=O)c1cccc(S(=O)(=O)N2CCN(c3ccc(F)cc3)CC2)c1)C1CCS(=O)(=O)C1 (stereo unspecified) | -17.5% | i
CSc1sc(C(=O)NC(=O)NCc2ccncc2)c(C)c1-c1ccon1 | -12.3% | -29.7%
CCOc1ccc(N2CC(C(=O)N3CC(C)OC(C)C3)CC2=O)cc1 (stereo unspecified) | -7.7% | 18.1%
O=c1c2c(-c3cccs3)csc2ncn1-c1ccccc1 | -19.3% | .
Cc1ccc(N=CN(C)C=Nc2ccc(C)cc2C)c(C)c1 | -8.2% | -11.1%
CCNC(=S)NNC(=O)c1cc(-c2ccc(OC)cc2)nc2ccccc12 | -18.2% | -15.6%
COc1cc(OC)c(S(=O)(=O)NCc2cccnc2)cc1NC(C)=O | -10.2% | i
Cc1ccc(C2C(=O)N(C3CCCCCC3)CC(=O)N2CCC2=CCCCC2)cc1 (stereo unspecified) | -9.6% | -11.7%
COc1cc(C#N)c(N=C(SCC#N)N2CCOCC2)cc1OC | -12.5% | -8.3%
COc1ccc(-c2ccc(C#N)c(OC)n2)cc1 | -6.1% | -9.0%
Cc1nonc1CC(=O)NC1CC(C)(C)Cc2c1cnn2-c1ccc(F)cc1 (stereo unspecified) | -15.1% | -13.9%
CC1Cc2ccccc2N1C(=O)CN1C(=O)CN(C)C(=O)c2ccccc21 (stereo unspecified) | -11.4% | -0.9%
CC(C)Oc1ccc(C(=O)NCC(=O)OCC(=O)N(C)Cc2cccs2)cc1 | 2.1% | ?
Cc1ccc2nc(C(Cl)(Cl)Cl)nc(N/N=C/c3ccc([N+](=O)[O-])cc3)c2c1 | 3.6% | i
CCCCNC(=O)C1(C)CCN1C(=O)c1cccc(OC(C)=O)c1C (stereo unspecified) | 1.9% | 13.2%
CCCCCCN1C[C@H](O)[C@@H](n2cc(-c3ccc(F)cc3)nn2)C[C@@H]1c1ccc(Cl)cc1 | ? | ?
CNC(=O)COC(=O)c1cc(-c2ccc(OC)cc2)nc2ccccc12 | -6.6% | i
Cn1c(Cl)cnc1C(O)c1ccccc1 (stereo unspecified) | 6.0% | -14.0%
O=C([C@H]1O[C@@H](n2ccc(=O)[nH]c2=O)[C@H](O)[C@@H]1O)N1CCN(c2ccc(Cl)cn2)CC1 | 3.3% | 9.7%
C[C@H](CO)N1C[C@H](C)[C@@H](CN(C)S(=O)(=O)c2cn(C)cn2)Oc2c(NS(=O)(=O)c3cccs3)cccc2C1=O | -3.2% | i
CN(Cc1cnn(C)c1)C(=O)c1cc(COc2c(F)cccc2F)on1 | -7.4% | i
COCCn1c(C)cc(C(=O)COC(=O)c2ccc3ncsc3c2)c1C | -14.2% | -13.7%
CCOC(=O)N1CCN(S(=O)(=O)c2ccc(C(=O)Nc3ccc(F)cc3F)cc2)CC1 | ? | -15.6%
CCOC(=O)c1cc2occc2n1CCCN1C(=O)c2ccccc2C1=O | -11.0% | -15.9%
COc1ccccc1-n1c(/C=C/c2ccc(O)cc2)nc2ccccc2c1=O | -6.3% | -0.2%
COc1ccc(OC)c(C(=O)COC(=O)CN2C(=O)NC3(CCCCC3C)C2=O)c1 (stereo unspecified) | -4.2% | -11.4%
CCOC(=O)c1c(C)nc(C)c2c(=O)oc3ccccc3c12 | -3.4% | -12.0%
